# MLL AF4-AF9 inh – inhibitors of AF4 peptide binding to AF9, primary screen, biochemical, AlphaScreen, biotin-AF4 peptide, FLAG-AF9, single point. 0.47% of 350,000 active. inhibition, % at 10 µM;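 active means every replicate reaching a set inhibition limit, whatever the replicate mean, cut at about 25% in these data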;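 further: 0% = plate neutral control median and 100% = total signal loss; the record names both 10 and 1 µM as test concentration; the first replicate is given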
# Target sequence (P42568 whole entry, looked up): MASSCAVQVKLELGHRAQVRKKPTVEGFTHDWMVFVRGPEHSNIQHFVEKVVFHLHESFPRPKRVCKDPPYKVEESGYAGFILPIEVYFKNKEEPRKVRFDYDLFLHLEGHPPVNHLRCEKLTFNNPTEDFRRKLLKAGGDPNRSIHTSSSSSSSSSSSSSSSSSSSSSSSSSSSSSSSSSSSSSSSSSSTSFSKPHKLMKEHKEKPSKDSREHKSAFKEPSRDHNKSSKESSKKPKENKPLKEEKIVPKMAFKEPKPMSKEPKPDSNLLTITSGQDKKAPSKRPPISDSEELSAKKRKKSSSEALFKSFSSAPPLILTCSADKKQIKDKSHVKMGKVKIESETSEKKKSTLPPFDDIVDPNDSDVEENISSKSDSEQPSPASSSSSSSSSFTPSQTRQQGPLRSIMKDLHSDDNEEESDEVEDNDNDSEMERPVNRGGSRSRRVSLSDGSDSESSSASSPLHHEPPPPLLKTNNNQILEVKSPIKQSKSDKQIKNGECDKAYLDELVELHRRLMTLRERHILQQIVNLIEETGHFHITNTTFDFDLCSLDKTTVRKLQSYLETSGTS
# An asterisk follows results filed as active; & = joins results of further samples. Not all compounds are listed (hit frequency here may not be typical).
SMILES,MLL AF4-AF9 inh
NS(=O)(=O)c1ccc(CCNc2ccn3nc(-c4ccc(OCCN5CCOCC5)cc4)cc3n2)cc1,2.6
CCCC#Cc1ccc2c(c1)O[C@H](CN(C)Cc1ccc3c(c1)OCO3)[C@@H](C)CN([C@H](C)CO)S2(=O)=O,-4.9
C[C@@H]1CN([C@H](C)CO)C(=O)c2cc(NC(=O)CCC(F)(F)F)ccc2O[C@@H]1CN(C)S(=O)(=O)c1ccc(F)cc1,0.6
COc1ccc2c3c([nH]c2c1)[C@@H](CO)N(C(=O)C1CC1)CC31CN(C(=O)c2ccncc2)C1,0.9
C[C@@H]1CN([C@@H](C)CO)C(=O)c2cc(C#CCc3ccccc3)cnc2O[C@@H]1CN(C)CC1CCOCC1,-0.1
CC1OC2CC(=O)OC2C2=C1C(=O)c1c(O)cccc1C2=O (stereo not given),-9.9
CC(C)NC(=O)N[C@H]1C=C[C@H](CC(=O)NCCN2CCCC2)O[C@H]1CO,-1.8
C[C@@H]1CCCCO[C@H](CN(C)Cc2ccc(C(=O)O)cc2)[C@H](C)CN([C@H](C)CO)C(=O)c2cc(NC(=O)Cc3ccccc3)ccc2O1,2.2
Cc1ccccc1-c1cnc2c(c1)C(=O)N([C@@H](C)CO)C[C@@H](C)[C@@H](CN(C)Cc1cncnc1)O2,-2.9
Cc1ccc(NC(=O)CN(C)C(=O)c2cccc(S(=O)(=O)N3CCCC3)c2)cc1,0.1
C[C@H](CO)N1C[C@H](C)[C@@H](CN(C)Cc2ccc(C(=O)O)cc2)Oc2c(NC(=O)NC3CCCCC3)cccc2C1=O,-13
N#C[C@H]1N[C@@H](CO)[C@@H]1c1ccc(C#CC2CCCC2)cc1,-0.7
C[C@@H]1CN([C@@H](C)CO)C(=O)c2cc(-c3ccccc3)cnc2O[C@H]1CN(C)C(=O)c1ccccn1,-4.1
CC(C)NC(=O)Nc1ccc2c(c1)C(=O)N([C@H](C)CO)C[C@H](C)[C@@H](CN(C)C(=O)CCCN(C)C)OCCCC[C@H](C)O2,-0.7
CN1C(=O)c2cc(NC(=O)c3cccc(C(F)(F)F)c3)ccc2OC[C@@H]2O[C@H](CC(=O)O)CC[C@H]21,0.5
COc1c2ccccc2nn1C(C)C,-1.3
Cc1ccc(C(=O)Nc2nnc([C@H]3C[C@H](O)[C@@H](CO)O3)s2)cc1,-2.9
O=C(C[C@H]1CC[C@@H]2[C@H](COC[C@H](O)CN2S(=O)(=O)c2ccc(F)cc2)O1)N[C@H]1CCN(Cc2ccccc2)C1,1.9
Cc1noc(C)c1NC(=O)Nc1ccc2c(c1)CC(=O)N([C@H](C)CO)C[C@H](C)[C@H](CN(C)Cc1ccccc1)O2,0.1
CC(C)COC(=O)N(C)C[C@H]1OCc2ccccc2-c2c(n(C)c3ccccc23)C(=O)N([C@H](C)CO)C[C@@H]1C,10
O=C(Nc1cccc(C(F)(F)F)c1)c1csc([C@@H]2C[C@H](O)[C@@H](CO)O2)n1,-0.6
C[C@H]1CCCCO[C@H](CN(C)C(=O)C2CCCCC2)[C@@H](C)CN([C@@H](C)CO)C(=O)c2cc(NC(=O)Nc3ccccc3)ccc2O1,3.1
O=C(C[C@@H]1C[C@H]2c3cc(NC(=O)c4cccnc4)ccc3O[C@H]2[C@@H](CO)O1)NCCN1CCCCC1,-9.3
CCCC#Cc1ccc2c(c1)O[C@@H](CN(C)C(=O)CN(C)C)[C@@H](C)CN([C@@H](C)CO)S2(=O)=O,5.2
O=C(C[C@@H]1C[C@@H]2c3cc(NC(=O)Nc4ccccc4F)ccc3O[C@@H]2[C@@H](CO)O1)NCCc1ccccc1,-0.1
# (continued)
SMILES,MLL AF4-AF9 inh
COc1ccc(S(=O)(=O)Nc2ccc3c(c2)C(=O)N([C@H](C)CO)C[C@H](C)[C@@H](CN(C)C(=O)c2ccncc2)OCCCC[C@@H](C)O3)cc1,-1.6
CN1CCN(C(=O)C[C@@H]2CC[C@H]3[C@@H](COc4ccc(NC(=O)C5CCCC5)cc4C(=O)N3C)O2)CC1,1.5
Cn1cnc(CCNC(=O)C[C@H]2CC[C@H]3[C@@H](COC[C@H](O)CN3C(=O)C3CC3)O2)c1,0.3
Cc1noc(C)c1NC(=O)Nc1ccc2c(c1)C(=O)N([C@@H](C)CO)C[C@@H](C)[C@@H](CN(C)CC1CC1)OCCCC[C@@H](C)O2,-1.1
CCCC(=O)Nc1ccc2c(c1)OC[C@H](C)N(C(=O)c1ccccc1F)C[C@H](C)[C@@H](OC)CN(C)C2=O,-0.6
C=CCN1C(=O)[C@]2(O[C@H](CCn3cc([C@H](O)c4ccccc4)nn3)[C@@H]([Si](C)(C)c3ccc(OC)cc3)[C@@H]2C)c2cc(N3CCC3=O)ccc21,2.0
COc1ccccc1-c1cc(NC=O)c2ncc(-c3cccc(C(F)(F)F)c3)n2c1,-0.1
CO[C@@H]1CN(C)C(=O)c2cc(NC(=O)c3ccccc3F)ccc2OC[C@H](C)N(C(=O)c2ccccc2F)C[C@H]1C,0.2
CNC[C@H]1Oc2c(NC(=O)c3nc4ccccc4s3)cccc2C(=O)N([C@@H](C)CO)C[C@H]1C,2.1
O=C(Nc1ccc2c(c1)OCO2)N[C@H]1C=C[C@H](CC(=O)N2CCN(c3ccccc3)CC2)O[C@@H]1CO,1.8
COCC#Cc1ccc([C@H]2[C@@H](CO)N3C(=O)CN(C(=O)C4CC4)C[C@H]23)cc1,-3.3
CCC(=O)Nc1ccc2c(c1)C(=O)N(C)C[C@@H](OC)[C@@H](C)CN(C(=O)Cc1ccccn1)[C@H](C)CO2,0.2
COc1cccc(C(NC(C)=O)c2nc(-c3cccc(NC(C)=O)c3)cs2)c1 (stereo not given),-2.7
CC1Sc2ccccc2N(Cc2ccccc2)C1=O (stereo not given),-0.4
CCS(=O)(=O)N1CCN(C(=O)c2ccc3nc(C)c(N(C)C(=O)CCc4ccccc4)n3c2)CC1,-1.5
C[C@@H]1CN([C@H](C)CO)C(=O)c2cc(NS(C)(=O)=O)ccc2O[C@@H](C)CCCCO[C@@H]1CN(C)CC1CCCCC1,-2.2
C[C@@H]1CN([C@H](C)CO)C(=O)Cc2cc(NS(C)(=O)=O)ccc2O[C@@H]1CN(C)C(=O)Nc1ccccc1,-2.8
O=C(C[C@H]1CC[C@@H]2[C@H](COC[C@@H](O)CN2Cc2nccs2)O1)NCc1ccccc1,-0.8
COc1ccc(OC)c(CN2C(=O)c3ccccc3C2c2nnnn2-c2c(C)cccc2C)c1 (stereo not given),2.5
C[C@H](CO)N1C[C@H](C)[C@@H](CN(C)C(=O)Nc2ccccc2)OCCCC[C@H](C)Oc2ccc(NC(=O)Nc3ccc4c(c3)OCO4)cc2C1=O,1.9
C[C@@H]1CCCCO[C@H](CN(C)Cc2ccc(C(=O)Nc3ccccc3N)cc2)[C@@H](C)CN([C@H](C)CO)C(=O)c2cc(NS(=O)(=O)c3ccc(Cl)cc3)ccc2O1,0.4
CO[C@H]1CN(C)C(=O)c2cc(NC(=O)NC(C)C)ccc2OC[C@H](C)N(C(=O)NC(C)C)C[C@@H]1C,-0.8
COc1ccc(NC(=O)Nc2cccc3c2O[C@H](CN(C)CC2CCCCC2)[C@H](C)CN([C@H](C)CO)C3=O)cc1,2.8
C[C@H]1CN([C@@H](C)CO)C(=O)CCCn2cc(nn2)CO[C@H]1CN(C)S(C)(=O)=O,-0.1
Cc1ccc(-c2cnc3c(c2)C(=O)N([C@H](C)CO)C[C@@H](C)[C@@H](CN(C)C(=O)Cc2ccccc2)O3)cc1,0.9&-2.0&-0.2
# (further entries)
SMILES,MLL AF4-AF9 inh
COc1ccc(NC(=O)Nc2cccc3c2O[C@@H](CN(C)S(=O)(=O)c2ccccc2)[C@H](C)CN([C@@H](C)CO)C3=O)cc1,1.9
O=C(Nc1c(-c2ccc3c(c2)OCO3)[nH][nH]c1=O)c1cccc(C(F)(F)F)c1,0.1
CCOc1ccc(OCC(=O)N2CCN(S(=O)(=O)c3ccccc3)CC2)cc1,-5.7
CN1c2ccc(C#Cc3cccnc3)cc2[C@H]2[C@H](CCN2C(=O)C2CCCCC2)[C@@H]1CO,-2.1
C[C@H]1CN([C@@H](C)CO)C(=O)c2cccc(NS(=O)(=O)c3ccc(F)cc3)c2O[C@H]1CN(C)S(C)(=O)=O,-2.2
CC(C)(C)n1nnnc1C(c1ccccc1)N1CCCN(Cc2ccc(F)cc2)CC1 (stereo not given),4.4
COc1ccccc1NC(=O)N1CC(=O)N2[C@H](C1)[C@H](c1ccc(-c3ccc(C)cc3)cc1)[C@@H]2CO,4.1
CC(=O)O[C@@H]1C[C@@]2(C)[C@@H](CC[C@H]2[C@@H](C)/C=C\CC(C)C)C2=C[C@@H](O)[C@@]3(O)C[C@@H](O)[C@H](O)C[C@]3(CO)[C@]21O,0.1
CC=Cc1ccc2n(c1=O)C[C@H]1[C@H](CO)[C@@H](C(=O)NCC)N(Cc3nccs3)[C@@H]21 (mixture of isomers),-2.0
Cc1cccc(S(=O)(=O)N2CCCCN3[C@@H](CO)[C@H](c4ccc(C#C[C@H](C)O)cc4)[C@@H]3C2)c1,-3.8
N#C[C@@H]1[C@H](c2ccc(C#Cc3ccccc3F)cc2)[C@H](CO)N1C(=O)C1CCCCC1,-1.2
O=C(C[C@H]1CC[C@@H](NC(=O)C2CCC2)[C@@H](CO)O1)Nc1nccs1,-1.4
Cc1noc(C)c1S(=O)(=O)N(C)C[C@H]1Oc2ccc(NS(=O)(=O)c3ccc(F)cc3)cc2CC(=O)N([C@@H](C)CO)C[C@H]1C,-0.9
O=C(N[C@H]1CC[C@H](CCn2cc(C3CCCC3)nn2)O[C@@H]1CO)c1cccnc1,-2.3
COc1ccc(-c2ccc3c(n2)CCCN3S(=O)(=O)c2ccccc2)cc1,0.6
COc1ccccc1NC(=O)N[C@@H]1CC[C@H](CCNS(=O)(=O)c2ccc(F)cc2)O[C@@H]1CO,0.6
CC1OC(C(C)(C)C)Cc2[nH][nH]c(=O)c21 (stereo not given),-1.8
CCNC(=O)[C@H]1[C@H](CO)[C@H]2Cn3c(cccc3=O)[C@H]2N1Cc1cccc(F)c1,-0.9
COC(=O)C[C@@H]1CC[C@@H]2[C@@H](COc3ccc(NC(=O)c4ccccc4)cc3C(=O)N2C)O1,0.6
C[C@H]1CN([C@@H](C)CO)C(=O)c2cc(N(C)C)ccc2O[C@@H]1CN(C)C(=O)Nc1ccc(C(F)(F)F)cc1,5.3
O=C(O)[C@@H]1[C@@H](CO)[C@@H]2Cn3c(ccc(C4=CCCCC4)c3=O)[C@@H]2N1Cc1ccccc1F,-21
COc1cccc(CNC(=O)C[C@@H]2C=C[C@@H](NC(C)=O)[C@H](CO)O2)c1,-1.6
CC=Cc1ccc2n(c1=O)C[C@@H]1[C@@H](CO)[C@H](C(=O)NCC3CC3)[C@H]2N1S(=O)(=O)c1cn(C)cn1 (mixture of isomers),-3.7
CCCNC(=O)Nc1ccc2c(c1)OC[C@@H](C)N(Cc1ccccn1)C[C@@H](C)[C@@H](OC)CN(C)C2=O,-0.9
Cc1ccccc1-c1csc(C(O)(c2ccccc2)C(F)(F)F)n1 (stereo not given),-4.5

# Entries shown so far with a cyano group (two):
SMILES,MLL AF4-AF9 inh
N#C[C@H]1N[C@@H](CO)[C@@H]1c1ccc(C#CC2CCCC2)cc1,-0.7
N#C[C@@H]1[C@H](c2ccc(C#Cc3ccccc3F)cc2)[C@H](CO)N1C(=O)C1CCCCC1,-1.2

# Given tab-delimited: 4 of the compounds above.
structure	MLL AF4-AF9 inh
CC(C)(C)n1nnnc1C(c1ccccc1)N1CCCN(Cc2ccc(F)cc2)CC1 (stereo not given)	4.4
COc1ccccc1NC(=O)N1CC(=O)N2[C@H](C1)[C@H](c1ccc(-c3ccc(C)cc3)cc1)[C@@H]2CO	4.1
CC(=O)O[C@@H]1C[C@@]2(C)[C@@H](CC[C@H]2[C@@H](C)/C=C\CC(C)C)C2=C[C@@H](O)[C@@]3(O)C[C@@H](O)[C@H](O)C[C@]3(CO)[C@]21O	0.1
CC=Cc1ccc2n(c1=O)C[C@H]1[C@H](CO)[C@@H](C(=O)NCC)N(Cc3nccs3)[C@@H]21 (mixture of isomers)	-2.0

# Additional results follow:
SMILES,MLL AF4-AF9 inh
O=C(C[C@@H]1C=C[C@H](NC(=O)Nc2ccc(C(F)(F)F)cc2)[C@@H](CO)O1)NCc1ccccn1,-0.4
Cc1ccccc1-c1cnc2c(c1)C(=O)N([C@@H](C)CO)C[C@@H](C)[C@H](CN(C)Cc1ccncc1)O2,-1.8
CC(=O)Nc1ccc2c(c1)C(=O)N(C)[C@@H]1CC[C@H](CC(=O)NCc3ccccc3Cl)O[C@@H]1CO2,-1.0
CNC[C@@H]1Oc2ccc(NC(=O)Nc3ccc(F)cc3)cc2C(=O)N([C@H](C)CO)C[C@H]1C,0.2
C[C@@H]1CN([C@@H](C)CO)S(=O)(=O)c2ccc(Br)cc2O[C@H]1CN(C)S(=O)(=O)c1cccc(F)c1,-1.0
CO[C@@H]1CN(C)C(=O)c2ccc(NC(=O)Nc3cccc(Cl)c3)cc2OC[C@@H](C)N(C(=O)Nc2c(C)noc2C)C[C@H]1C,4.0
Cc1ccc(S(=O)(=O)N[C@@H]2C=C[C@H](CC(=O)N3CCN(c4ccccc4)CC3)O[C@@H]2CO)cc1,1.2
COCC(=O)N1[C@H](CO)[C@@H](c2ccccc2)C12CN(Cc1cc(F)ccc1F)C2,1.5
O=C(C[C@H]1C=C[C@H](NC(=O)Nc2ccc3c(c2)OCO3)[C@H](CO)O1)NCCCN1CCOCC1,0.7

# Copied from above (2 entries):
SMILES,MLL AF4-AF9 inh
Cn1cnc(CCNC(=O)C[C@H]2CC[C@H]3[C@@H](COC[C@H](O)CN3C(=O)C3CC3)O2)c1,0.3
Cc1noc(C)c1NC(=O)Nc1ccc2c(c1)C(=O)N([C@@H](C)CO)C[C@@H](C)[C@@H](CN(C)CC1CC1)OCCCC[C@@H](C)O2,-1.1

# Bioassay records: PubChem, Broad Institute
